Compound activity (PubChem BioAssay)
Mtb growth – Mycobacterium tuberculosis H37Rv growth inhibition, cell based, confirmatory dose response (AID 1949); most inactive calls were filed without a number and no value below 0 was filed; one-dose inhibition, % at 10 µg/mL; IC50 in µg/mL for titrated hits; 100,000 tested, 1.6% active;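 active = confirmed in a dose series; inconclusive = about 50% or more but not retested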;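 note: bacteria grown 7 days with compound before Alamar blue readout; 0% = untreated bacteria and 100% = reference antibiotic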
The depositor's hits bear a star; i = inactive; ? = inconclusive.

The opening 6 compounds as a preview:
SMILES | Mtb growth
CCN(C(=S)NC(=O)Cc1ccc(OC)cc1)c1ccccc1 | i
Cc1ccc(-n2c(SCC(=O)c3ccccc3)nnc2-c2ccccc2)cc1C | i
CN(C1CCS(=O)(=O)C1)S(=O)(=O)c1ccc(N2CCCC2=O)cc1 (stereo not given) | i
CC(=O)c1ccc(N(C(C)=O)S(=O)(=O)c2ccc(Cl)cc2)cc1 | i
O=S(=O)(c1cc(Cl)cc(S(=O)(=O)C(F)(F)F)c1)C(F)(F)F | i
COc1ccc(C(=O)Nc2sc(C)c(C)c2C(N)=O)cc1OC | i

Results, previewed entries included:
SMILES | Mtb growth
CCN(C(=S)NC(=O)Cc1ccc(OC)cc1)c1ccccc1 | i
Cc1ccc(-n2c(SCC(=O)c3ccccc3)nnc2-c2ccccc2)cc1C | i
CN(C1CCS(=O)(=O)C1)S(=O)(=O)c1ccc(N2CCCC2=O)cc1 (stereo not given) | i
CC(=O)c1ccc(N(C(C)=O)S(=O)(=O)c2ccc(Cl)cc2)cc1 | i
O=S(=O)(c1cc(Cl)cc(S(=O)(=O)C(F)(F)F)c1)C(F)(F)F | i
COc1ccc(C(=O)Nc2sc(C)c(C)c2C(N)=O)cc1OC | i
Cc1cc(NC(=O)c2sc3ccccc3c2Cl)ccc1Br | i
CC(C)NS(=O)(=O)c1ccc(OCC(=O)N2CCC(Cc3ccccc3)CC2)cc1 | i
Cc1cccc(NC(=O)CSc2nc3c(c(=O)n(C)c(=O)n3C)n2Cc2ccccc2F)c1C | i
CN(C)c1ccc(Nc2ncnc3ccc(Br)cc23)cc1 | 1.08µg/mL*
COc1cc(C(=S)N2CCCC2)cc(OC)c1O | i
CC1CCC(N2CCN(CCCc3ccccc3)CC2)CC1 (stereo not given) | i
CCOc1ccc(Oc2cc(O)cc([N+](=O)[O-])c2)cc1 | i
O=C(Cc1cccs1)Nc1ccc(C(=O)O)cc1NC(=O)Cc1cccs1 | i
Cc1ccccc1-c1nc(S(=O)(=O)c2ccccc2)c(N2CCOCC2)o1 | i
CCCCc1nnc(NC(=O)C(Cl)Cl)s1 | i
CCC(=O)NC(=S)Nc1cc(C(=O)OC)cc(C(=O)OC)c1 | 0.4%
O=C1CC(N2CCCCCCC2)C(=O)N1c1ccc(Br)cc1 (stereo not given) | i
O=C(CN1C(=O)c2ccccc2C1=O)Nc1nnc(CCc2ccccc2)s1 | i
COC(=O)c1ccccc1NC(=O)c1oc2ccc(F)cc2c1C | 0.5%
CON(C)c1nc(Oc2ccc(=O)[nH]n2)nc(N(C)C)n1 | i
Cc1ccc(N(CC(O)CN(C)C)S(=O)(=O)c2ccc([N+](=O)[O-])cc2)cc1 (stereo not given) | i
Cc1cccc(C(=O)N2CCN(c3ccc(C)cc3C)CC2)c1 | 3.2%
O=C(NC1CCCC1)c1sc2cc(Cl)ccc2c1Cl | i
Cc1ccc(SCC(=O)NCc2ccc(F)cc2)cc1 | i

(cont.)
SMILES | Mtb growth
CN(C)c1ccc(C(=O)Nc2ccccc2C(N)=O)cc1 | i
Cc1ccc2c(c1)CCCN2C(=O)Nc1ccc2c(c1)OCO2 | i
CCCCc1ccc(NC(=S)N2CCN(C(=O)c3ccco3)CC2)cc1 | i
CCCCc1ccc(NC(=O)CN(c2ccc(OC)cc2OC)S(C)(=O)=O)cc1 | i
COC(=O)c1c(NC(=O)c2ccc([N+](=O)[O-])cc2)sc(C(=O)N(C)C)c1C | 0.7%
O=C(NC(=O)N1CCOCC1)c1ccccc1 | i
Cc1occc1C(=O)Nc1ccc(Cl)cc1Cl | 4.7%
Cn1c(=O)cc(N)n(-c2ccccc2)c1=O | i
O=C(c1cccc(Cl)c1)N1CCC(C(=O)N2CCN(Cc3ccccc3)CC2)CC1 | 3.0%
COC(=O)C(C(=O)Nc1cccc(C)n1)C1CCCCCC1 (stereo not given) | i
CCOC(=O)c1ccc(N2C(=O)CC(NCc3ccc(N4CCCC4=O)cc3)C2=O)cc1 (stereo not given) | i
CCOc1ccc(N/C(N)=N\c2nc(-c3ccccc3)cc(=O)[nH]2)cc1 | i
CCc1ccccc1NC(=O)COc1ccc(C(=O)Nc2ccc(Cl)cc2)cc1 | i
O=C(NC(=S)NC1C2CC3CC(C2)CC1C3)c1ccco1 (stereo not given) | i
O=C(O)C1C2CCC(O2)C1C(=O)NCc1ccc(Cl)cc1 (stereo not given) | i
COC(=O)c1ccc(COc2c(F)c(F)cc(F)c2F)o1 | 1.7%
COC(=O)c1ccccc1OCC(=O)NC1CCCCC1 | i
Fc1ccccc1OCCCOc1ccccc1F | i
Cc1ccccc1N1C(=O)CC2(CCCC2)CC1=O | 2.1%
Cc1ccc(NC(=O)c2cccnc2)c(NC(=O)c2cccnc2)c1 | i
Cc1cccc(C)c1NC(N)=Nc1nc(C(F)(F)F)cc(C(F)(F)F)n1 | 8.5%
O=S(=O)(Cc1ccc(Cl)cc1)N1CCc2ccccc2C1 | 3.5%
O=C(CSc1nc2ccccc2s1)N1CCN(c2nc3ccccc3s2)CC1 | i
Cc1c(NC(=O)CSc2nncc3ccccc23)c(=O)n(-c2ccccc2)n1C | i
O=C(O)CSc1nc(-c2ccccc2)cc(=O)[nH]1 | i

Later entries.
SMILES | Mtb growth
Cc1ccc(C(=O)Nc2ccc(I)cc2Cl)c(C)c1 | 5.9%
Cc1c(OCC(=O)C(C)(C)C)ccc2c3c(c(=O)oc12)CCCC3 | i
O=C(O)c1cccc(NC(=O)c2ccccc2NC(=O)c2cccc([N+](=O)[O-])c2)c1 | 0.9%
C=CCn1c(CNC(=O)c2ccco2)nnc1SCC(=O)Nc1cccc(C(=O)OC(C)C)c1 | 0.8%
Cc1nn(C)c(C(=O)NNC(=O)Nc2cccc(Cl)c2C)c1Br | i
N#CCC(=O)Cc1ccccc1[N+](=O)[O-] | i
O=C(NC1(C(F)(F)F)NC(=O)N(c2ccccc2F)C1=O)C1CCCCC1 (stereo not given) | 0.2%
CCOC(=O)C1CCN(C(=O)CN(c2ccc(C)cc2)S(=O)(=O)c2ccc(OCC)cc2)CC1 | i
Cc1ccc(NC(=O)C(NS(=O)(=O)c2ccc(C)cc2)C(C)C)cc1 (stereo not given) | 1.2%
CC(C(=O)N1c2ccccc2C(Nc2ccccc2)CC1C)N1C(=O)c2ccccc2C1=O (stereo not given) | i
Cn1c(=O)c2c(nc(SCC(=O)N3CCOCC3)n2Cc2ccccc2F)n(C)c1=O | i
Cc1ccc(Cl)cc1N1CCN(C(=O)CN(c2ccc(Cl)c(C(F)(F)F)c2)S(C)(=O)=O)CC1 | 3.6%
CC(=O)NC(=S)Nc1cccc(-c2nc3ncccc3o2)c1C | i
COc1ccccc1N1CCN(c2nc3ccccn3c(=O)c2C=O)CC1 | i
Cn1c(CC(=O)Nc2ccc(Cl)c(Cl)c2)n[nH]c1=S | 9.8%
CCc1c(C)sc(NC(=S)Nc2cnccn2)c1C(=O)OC | i
O=C(CC(O)(C(F)(F)F)C(F)(F)F)Nc1cc(Cl)ccc1Cl | 5.84µg/mL*
Cc1nnc(SCc2cc(=O)[nH]c(=S)[nH]2)s1 | 0.0%
CCOc1ccc(NC(=O)c2c(NC(=O)CN3CCCC3)sc3c2CCC3)cc1 | 9.3%
Cc1ccc2c(c1)C(O)(CC(=O)c1cccnc1)C(=O)N2 (stereo not given) | i
Cc1cc(=O)oc2cc(OCc3ccc(S(=O)(=O)c4ccccc4)cc3)ccc12 | 2.4%
CN(C(=O)c1ccc(NC(=O)C2CC=CCC2C(=O)O)cc1)c1ccccc1 (stereo not given) | i
CC(=O)Nc1ccc(S(=O)(=O)Nc2ccc(C)c(C)c2)cc1 | i
COC(=O)c1c(NC(=S)NNC(=O)c2ccccn2)sc(C)c1-c1ccccc1 | i
Cc1nc2c3c(cccc3n1)C(=O)c1ccccc1-2 | 36.7%

An excerpt of these results, with each value named.
CC(C(=O)N1c2ccccc2C(Nc2ccccc2)CC1C)N1C(=O)c2ccccc2C1=O (stereo not given)
  Mtb growth = i
Cc1nnc(SCc2cc(=O)[nH]c(=S)[nH]2)s1
  Mtb growth = 0.0%
CC(=O)Nc1ccc(S(=O)(=O)Nc2ccc(C)c(C)c2)cc1
  Mtb growth = i
Cc1ccc(C(=O)Nc2ccc(I)cc2Cl)c(C)c1
  Mtb growth = 5.9%

Additional entries follow.
SMILES | Mtb growth
Cc1[nH]c2ccc(CN3C(=O)c4ccccc4C3=O)cc2c1C | i
CC(=O)Oc1ccc(C(=O)N2CCN(c3ccccn3)CC2)cc1 | i
Cc1ccc(-c2noc(CC3CCCCC3)n2)cc1 | i
Cc1ccc(-c2ccccc2)n1-c1cccnc1 | 1.1%
O=S(=O)(/N=C(\Nc1ccc(Cl)c(S(=O)(=O)N2CCOCC2)c1)c1ccc(F)cc1)c1ccccc1 | i
Cc1cc(NC(=S)NC(=O)c2cccs2)ccc1NC(=O)c1cc2ccccc2o1 | i
CC(=C/c1ccccc1)/C=C1\SC(=S)N(c2ccc(Cl)cc2)C1=O | i
COc1ccc(CNC(=O)CSc2nnc(NC(=O)CCc3ccccc3)s2)cc1 | 1.2%
C=CCn1c(SCC(=O)c2cc(OC)c(OC)c(OC)c2)nc2sc3c(c2c1=O)CCC3 | i
CC(C)CC(=O)Nc1nc(C(C)(C)C)cs1 | i
CCn1c(CSCc2ccccc2)nnc1SCC(=O)Nc1cc(F)ccc1C | 1.3%
OCCNc1nc(Nc2ccc(Br)cc2)nc2ccccc12 | ?
CCOC(=O)c1c(-c2ccc(C)cc2)csc1NC(=O)Cn1cnc2sc(C)c(C)c2c1=O | i
CC(=O)N1CCN(C(CNS(=O)(=O)c2ccc(Cl)cc2)c2ccccc2)CC1 (stereo not given) | i
CC(C)(C)NC(=O)c1ccc(NC(=O)Cc2ccc(Cl)cc2)cc1 | 2.7%
Cc1ccc(-c2cc(C(=O)Nc3ccc4c(c3)OCCO4)c3ccccc3n2)o1 | 22.3%
CCc1cc2c(=O)c(Oc3ccc(Cl)cc3)coc2cc1O | 4.8%
S=C(NNc1ccccc1)Nc1ccccc1 | 2.9%
O=C(O)c1cc([N+](=O)[O-])ccc1N1CCCCC1 | i
CCC(Sc1nc(-c2ccccc2)cc(=O)[nH]1)C(=O)O (stereo not given) | i
CN(C)CCC(=O)c1cccc(Br)c1 | ?
COc1cccc(NC(=S)Nc2ccc3nsnc3c2)c1 | 28.3%
CCOc1ccccc1OC(=O)C(C)(C)C | i
N#Cc1c(Nc2ccccc2)c(C=O)c[nH]c1=O | i
COc1ccc([N+](=O)[O-])cc1NC(=O)Cc1c(F)cccc1Cl | i

Following part.
SMILES | Mtb growth
O=C(NCc1ccccc1)c1ccc2c(c1)C(=O)N(CC1CCCO1)C2=O (stereo not given) | i
Cc1ccc(OCCOCCN2CCN(C)CC2)c([N+](=O)[O-])c1 | i
CCOc1cc(C2NC(=S)NC(C)=C2C(=O)Nc2ccc(F)cc2)ccc1O (stereo not given) | i
COc1cc(OC)cc(C(=O)Nc2ccc(N3CCN(C(=O)c4ccc(C)cc4)CC3)cc2)c1 | i
Cc1ccc(Nc2nc(N)nc(CN3CCCCCC3)n2)c(C)c1 | 1.4%
COc1ccc2c(c1)C(C)CC(C)(C)N2C(=O)CSc1nnc(-c2ccco2)n1C (stereo not given) | 12.3%
COc1ccc(Nc2cc(=O)oc3ccccc23)cc1 | i
O=C(Nc1ccccc1N1CCCC1)c1cc(Br)ccc1Cl | 32.8%
CC(NC(=O)C(Cl)(Cl)Cl)c1ccccc1 (stereo not given) | 2.0%
CCc1cccc(CC)c1NC(=O)COc1ccc([N+](=O)[O-])cc1 | i
O=c1c(-c2ccccc2)c(C(F)(F)F)oc2c(CN3CCN(Cc4ccccc4)CC3)c(O)ccc12 | i
COCCCNC(=O)COc1ccc(Br)cc1C | 5.3%
CCSc1nnc2n(CC)c3ccccc3n12 | i
CC(C)Oc1ccc(C(=O)NC(=S)NC2CCCC2)cc1 | 8.9%
CCOC(=O)c1cnc2c(C(=O)OC)cccc2c1NCc1ccco1 | i
Cc1cc(C)n(C(=O)CN2C(=O)CN=C(c3ccccc3)c3cc(Br)ccc32)n1 | i
Cc1csc(NC(=O)CSc2nnc(-c3ccncc3)o2)n1 | ?
CCC(C)C12CN3CCN(CC(C)(C3)C1=O)C2 (stereo not given) | 7.2%
CCN(CC)c1ccc(C=Nc2ccc3nc(-c4ccc(Cl)cc4Cl)[nH]c3c2)cc1 | i
O=C(NC(=S)NCc1ccncc1)c1ccccc1 | 1.2%
COC(=O)C1=C(C)c2onc(N)c2C1c1cccc(F)c1 (stereo not given) | i
O=c1c2c(-c3ccccc3)csc2nc2c3ccccc3c(SCc3ccco3)nn12 | i
CCc1ccc(-c2csc(Nc3ncccn3)n2)cc1 | 0.9%
CN(CC(=O)Nc1ccc(Oc2ccccc2)cc1)S(=O)(=O)c1ccc(F)cc1 | i
CCOc1cc(C(=O)NC(=S)Nc2cccc(C(=O)O)c2C)cc(OCC)c1OCC | i

A different layout for some results above:
SMILES,Mtb growth
Cc1cc(=O)oc2cc(OCc3ccc(S(=O)(=O)c4ccccc4)cc3)ccc12,2.4%
CN(C(=O)c1ccc(NC(=O)C2CC=CCC2C(=O)O)cc1)c1ccccc1 (stereo not given),i

Later entries
SMILES | Mtb growth
CCC(=O)c1ccc(OCC(O)CN2CCCCCC2)cc1 (stereo not given) | i
O=C(COc1ccccc1)NCC12CC3CC(C1)CC(c1ccccc1)(C3)C2 | 15.3%
N#Cc1ccc(-c2ccc([N+](=O)[O-])cc2Cl)o1 | 9.8%
COc1ccccc1CNC(=O)CN(c1cccc(Cl)c1)S(=O)(=O)c1ccc(Cl)cc1 | i
Cc1ccc(NC(=O)C(C)Oc2cccc(Cl)c2)cc1[N+](=O)[O-] (stereo not given) | i
CC(C)(C)NCCCCOc1ccc(Br)cc1 | i
Cc1ccc(NC(=O)Cn2ccnc2)cc1C | i
COc1cccc(NC(=O)COc2ccc3c4c(c(=O)oc3c2C)CCC4)c1 | i
CCC(C)c1ccc(OCC(=O)Nc2ccccc2C(N)=O)cc1 (stereo not given) | 5.8%
Cc1ccc(OCC(=O)Nc2ccc(N3CCN(Cc4ccccc4)CC3)cc2)cc1C | i
COc1ccc(OC)c(NC(=O)CCN2CCN(Cc3cccc4ccccc34)CC2)c1 | 0.2%
N#Cc1ccc(-c2ccc(OC(=O)CSc3ccc(C(F)(F)F)cc3[N+](=O)[O-])cc2)cc1 | i

An excerpt; count on the stated rates, not on these rows.
